# A1 apoptosis 2: A1 inhibitors via caspase activation, primary screen, cell-based, luminescence, HTS, two replicates; MEF A1-2A-BIM cells, caspase-Glo luminescence, 3 h; percent of clofoctol response, DMSO zero; caspase activation, % (no concentration beside the values); 24,000 tested, under 10 active; in the data active = caspase activation above about 5.9%;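 note: wells of about 30 µL received 50 nL stock; the first replicate is given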
#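 system = A1-2A-BIM-expressing MEF cells | quantity = 2500 MEF cells/well | dosing = 50 nL compound per well, pinned | schedule = overnight cell settling, then 3 h compound exposure, 37 °C | signal = luminescence from DEVD-luciferin Caspase-Glo reagent, 1:1 in 50 mM HEPES, 1 h RT | read-out = Caspase-3/7 activation, seen as rise in luminescence signal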
# The depositor's hits bear a star. Not all compounds are listed, so the mix of outcomes need not match the whole.
item | SMILES | A1 apoptosis 2
1 | C[C@@H]1CCCCO[C@H](CN(C)S(=O)(=O)c2cn(C)cn2)[C@@H](C)CN([C@H](C)CO)C(=O)c2cc(NC(=O)C3CCCCC3)ccc2O1 | 0.4
2 | Cc1noc(C)c1NC(=O)Nc1ccc2c(c1)C(=O)N([C@@H](C)CO)C[C@H](C)[C@H](CN(C)S(=O)(=O)c1cn(C)cn1)OCCCC[C@@H](C)O2 | -0.8
3 | C[C@@H]1CN([C@H](C)CO)C(=O)c2cccc(NC(=O)C3CC3)c2O[C@@H]1CN(C)S(=O)(=O)c1ccc(Cl)cc1 | -1.3
4 | Cc1ccc(S(=O)(=O)N(C)C[C@@H]2Oc3ccc(N(C)C)cc3C(=O)N([C@H](C)CO)C[C@H]2C)cc1 | -1.8
5 | C[C@H]1CN([C@@H](C)CO)C(=O)CCCn2nncc2CO[C@@H]1CN(C)S(=O)(=O)c1cccs1 | -0.1
6 | C[C@@H]1CCCCO[C@H](CN(C)S(=O)(=O)c2cn(C)cn2)[C@H](C)CN([C@@H](C)CO)C(=O)c2cc(NS(=O)(=O)c3cccs3)ccc2O1 | -0.1
7 | Cc1noc(C)c1NC(=O)Nc1cccc2c1O[C@H](CN(C)CC1CC1)[C@H](C)CN([C@@H](C)CO)C2=O | -1.3
8 | O=C(C1=C[C@@H](c2ccccc2)C[C@@H](OCc2ccc(CO)cc2)O1)N1CCOCC1 | 0.7
9 | C[C@@H]1CN([C@@H](C)CO)C(=O)CCCn2cc(nn2)CO[C@@H]1CN(C)C(=O)Nc1ccccc1F | 1.5
10 | COC(=O)CCCCCCC(=O)NN=C1CCCCCC1 | 0.9
11 | C[C@H](CO)N1C[C@H](C)[C@H](CN(C)Cc2ccc(-c3ccccc3)cc2)Oc2c(NC(=O)C3CC3)cccc2C1=O | 1.7
12 | C[C@@H]1CN([C@@H](C)CO)C(=O)CCCn2nncc2CO[C@@H]1CN(C)S(=O)(=O)c1ccc(-c2ccccc2)cc1 | -0.2

# (listing goes on)
item | SMILES | A1 apoptosis 2
13 | Cc1noc(C)c1NC(=O)Nc1cccc2c1O[C@H](CN(C)Cc1ccc3c(c1)OCO3)[C@@H](C)CN([C@H](C)CO)C2=O | -0.4
14 | C[C@@H]1CN([C@@H](C)CO)C(=O)c2cc(NS(=O)(=O)c3ccccc3)ccc2O[C@@H](C)CCCCO[C@H]1CN(C)S(=O)(=O)c1cn(C)cn1 | 1.7
15 | C#CCNC(=O)C1=C[C@@H](c2ccc(C#C)cc2)[C@H](CCCO)[C@@H](OCC)O1 | 0.3
16 | CC12N=C3SCC(=O)N3[C@H](c3ccccc3O1)[C@H]2CO[Si](C)(C)C(C)(C)C | 0.3
17 | C[C@@H]1CN([C@H](C)CO)C(=O)Cc2cc(NC(=O)C3CC3)ccc2O[C@@H]1CN(C)C(=O)Nc1ccc(F)cc1 | -0.5
18 | C[C@H]1CN([C@@H](C)CO)C(=O)c2cc(NC(=O)Nc3cccc4ccccc34)ccc2O[C@H]1CN(C)Cc1ccc(-c2ccccc2)cc1 | 0.4
19 | C[C@H]1CN([C@@H](C)CO)C(=O)Cc2cc(NC(=O)Nc3ccc(F)cc3)ccc2O[C@@H]1CN(C)Cc1ccncc1 | 0.9
20 | C[C@@H]1CN([C@@H](C)CO)C(=O)CCCn2nncc2CO[C@H]1CN(C)C(=O)Nc1cccc2ccccc12 | 0.9
21 | O=C(N1CCCCC1)[C@@]1(Cc2ccccc2)COC(c2ccc(OCCCO)cc2)=N1 | 0.9
22 | C[C@@H]1CN([C@@H](C)CO)C(=O)c2cc(NC(=O)CCN3CCOCC3)ccc2O[C@H]1CN(C)S(=O)(=O)c1cn(C)cn1 | 0.7
23 | C[C@H](CO)N1C[C@H](C)[C@@H](CN(C)C(=O)NC2CCCCC2)Oc2c(NS(=O)(=O)c3cccs3)cccc2C1=O | -1.6
24 | C[C@H](CO)N1C[C@H](C)[C@H](CN(C)Cc2ccc3cccnc3c2)OCc2cnnn2CCCC1=O | 0.9

# Part of the list above, set out differently.
9: C[C@@H]1CN([C@@H](C)CO)C(=O)CCCn2cc(nn2)CO[C@@H]1CN(C)C(=O)Nc1ccccc1F
  A1 apoptosis 2: 1.5
21: O=C(N1CCCCC1)[C@@]1(Cc2ccccc2)COC(c2ccc(OCCCO)cc2)=N1
  A1 apoptosis 2: 0.9
5: C[C@H]1CN([C@@H](C)CO)C(=O)CCCn2nncc2CO[C@@H]1CN(C)S(=O)(=O)c1cccs1
  A1 apoptosis 2: -0.1

# The listing picks up, starting 4 compounds before the break.
item | SMILES | A1 apoptosis 2
21 | O=C(N1CCCCC1)[C@@]1(Cc2ccccc2)COC(c2ccc(OCCCO)cc2)=N1 | 0.9
22 | C[C@@H]1CN([C@@H](C)CO)C(=O)c2cc(NC(=O)CCN3CCOCC3)ccc2O[C@H]1CN(C)S(=O)(=O)c1cn(C)cn1 | 0.7
23 | C[C@H](CO)N1C[C@H](C)[C@@H](CN(C)C(=O)NC2CCCCC2)Oc2c(NS(=O)(=O)c3cccs3)cccc2C1=O | -1.6
24 | C[C@H](CO)N1C[C@H](C)[C@H](CN(C)Cc2ccc3cccnc3c2)OCc2cnnn2CCCC1=O | 0.9
25 | C[C@@H]1CN([C@H](C)CO)C(=O)Cc2cc(N(C)C)ccc2O[C@@H]1CN(C)Cc1ccc(C(F)(F)F)cc1 | -0.8
26 | C[C@@H]1CCCCO[C@@H](CN(C)C(=O)Cc2ccccc2)[C@@H](C)CN([C@@H](C)CO)C(=O)c2cc(NC(=O)Nc3ccccc3)ccc2O1 | 0.2
27 | Cc1cc(C(=O)Nc2cccc3c2O[C@H](CN(C)C(=O)Nc2ccccc2)[C@@H](C)CN([C@@H](C)CO)C3=O)n(C)n1 | 0.4
28 | Cc1noc(C)c1NC(=O)Nc1cccc2c1O[C@H](CN(C)Cc1ccc3c(c1)OCO3)[C@H](C)CN([C@@H](C)CO)C2=O | 0.0
29 | C[C@@H]1CN([C@H](C)CO)C(=O)c2cccc(NS(=O)(=O)c3ccc(Cl)cc3)c2O[C@@H]1CN(C)C | -0.1
30 | C[C@@H]1CCCCO[C@H](CN(C)Cc2ccncc2)[C@@H](C)CN([C@@H](C)CO)C(=O)c2cc(N(C)C)ccc2O1 | -0.2
31 | C[C@H]1CN([C@@H](C)CO)C(=O)c2cc(NC(=O)Nc3ccc(F)cc3)ccc2O[C@H]1CN(C)S(=O)(=O)c1cn(C)cn1 | -0.5
32 | C=CCN1CCc2cc(OC)c(OC)cc2C1C#Cc1ccccc1 (stereo unspecified) | 0.0
33 | C[C@@H]1CN([C@H](C)CO)C(=O)c2cccc(NC(=O)c3ccncc3)c2O[C@H]1CN(C)Cc1ccc(C(F)(F)F)cc1 | 2.0
34 | C[C@@H]1CCCCO[C@H](CN(C)C(=O)Nc2ccccc2)[C@@H](C)CN([C@@H](C)CO)C(=O)c2cc(NC(=O)c3ccccc3)ccc2O1 | -0.7
35 | C[C@@H]1CCCCO[C@H](CN(C)Cc2ccc(C(F)(F)F)cc2)[C@@H](C)CN([C@H](C)CO)C(=O)c2cc(NC(=O)Nc3ccccc3)ccc2O1 | 0.2
36 | C[C@@H]1CCCCO[C@H](CN(C)C)[C@H](C)CN([C@@H](C)CO)C(=O)c2cc(NS(=O)(=O)c3cccs3)ccc2O1 | -0.1

# (next part)
item | SMILES | A1 apoptosis 2
37 | C[C@H]1CN([C@@H](C)CO)C(=O)Cc2cc(NC(=O)C3CC3)ccc2O[C@H]1CN(C)S(=O)(=O)c1cn(C)cn1 | 0.0
38 | C[C@@H]1CN([C@H](C)CO)C(=O)c2cccc(N(C)C)c2O[C@@H]1CN(C)C(=O)NC1CCCCC1 | 1.4
39 | C[C@@H]1CCCCO[C@H](CN(C)C(=O)CCC(F)(F)F)[C@H](C)CN([C@@H](C)CO)C(=O)c2cc(N(C)C)ccc2O1 | -0.5
40 | C[C@H](CO)N1C[C@H](C)[C@H](CN(C)S(=O)(=O)c2cccs2)Oc2ncc(C#Cc3ccc(C(F)(F)F)cc3)cc2C1=O | -1.7
41 | C[C@H]1CN([C@@H](C)CO)C(=O)Cc2cc(NC(=O)CCCCCC(=O)Nc3ccccc3N)ccc2O[C@@H]1CN(C)S(=O)(=O)c1ccc(F)cc1 | 0.3
42 | C[C@H](CO)N1C[C@H](C)[C@@H](CN(C)Cc2ccncc2)Oc2ccc(NS(=O)(=O)c3cccs3)cc2C1=O | -0.2
43 | C[C@@H]1CCCCO[C@@H](CN(C)Cc2ccccc2)[C@H](C)CN([C@@H](C)CO)C(=O)c2cc(NS(=O)(=O)c3ccccc3)ccc2O1 | -0.2
44 | C[C@H](CO)N1C[C@H](C)[C@@H](CN(C)S(=O)(=O)c2ccc(Oc3ccccc3)cc2)OCc2cnnn2CCCC1=O | 0.2
45 | COc1ccc(NC(=O)N(C)C[C@@H]2Oc3c(NS(=O)(=O)c4ccc(C)cc4)cccc3C(=O)N([C@@H](C)CO)C[C@H]2C)cc1 | 1.2
46 | CNC[C@@H]1OCCCC[C@H](C)Oc2ccc(NC(=O)CCC(F)(F)F)cc2C(=O)N([C@H](C)CO)C[C@@H]1C | 0.0
47 | C[C@H](CO)N1C[C@H](C)[C@@H](CN(C)Cc2ccc(C(=O)O)cc2)Oc2ccc(NC(=O)Cn3cnnn3)cc2CC1=O | -1.5
48 | C[C@@H]1CN([C@@H](C)CO)C(=O)Cc2cc(NC(=O)Cc3cn(C)c4ccccc34)ccc2O[C@@H]1CN(C)C(=O)Nc1ccccc1 | 0.5

# The listing continues.
item | SMILES | A1 apoptosis 2
49 | C[C@@H]1CN([C@H](C)CO)C(=O)c2cc(NC(=O)CCC(F)(F)F)ccc2O[C@@H]1CN(C)C | 0.0
50 | C[C@H]1CN([C@@H](C)CO)C(=O)Cc2cc(N(C)C)ccc2O[C@@H]1CN(C)C(=O)Nc1cccc2ccccc12 | -1.7
51 | C[C@@H]1CCCCO[C@H](CN(C)C(=O)CCCN(C)C)[C@@H](C)CN([C@H](C)CO)C(=O)c2cc(NS(=O)(=O)c3ccccc3)ccc2O1 | 0.5
52 | CC(C)NC(=O)Nc1ccc2c(c1)C(=O)N([C@H](C)CO)C[C@H](C)[C@@H](CN(C)C(=O)Nc1ccccc1)OCCCC[C@H](C)O2 | -0.7
53 | C[C@H](CO)N1C[C@H](C)[C@@H](CN(C)C(=O)Nc2ccccc2)Oc2c(NC(=O)c3ccncc3)cccc2C1=O | -2.1
54 | Cc1ccc(S(=O)(=O)N(C)C[C@H]2OCCCC[C@H](C)Oc3ccc(NC(=O)NC4CCCCC4)cc3C(=O)N([C@H](C)CO)C[C@H]2C)cc1 | -0.5
55 | CC(C)NC(=O)N(C)C[C@@H]1Oc2ccc(NC(=O)Cn3cnnn3)cc2CC(=O)N([C@H](C)CO)C[C@@H]1C | 1.4
56 | CNC[C@@H]1Oc2ccc(N(C)C)cc2CC(=O)N([C@H](C)CO)C[C@H]1C | -1.0
57 | C[C@H]1CCCCO[C@H](CN(C)S(=O)(=O)c2cn(C)cn2)[C@@H](C)CN([C@@H](C)CO)C(=O)c2cc(NC(=O)Nc3ccc(C(F)(F)F)cc3)ccc2O1 | -1.2
58 | C[C@@H]1CCCCO[C@H](CN(C)Cc2ccncc2)[C@@H](C)CN([C@H](C)CO)C(=O)c2cc(NC(=O)c3ccncc3)ccc2O1 | 1.1
59 | C[C@H](CO)N1C[C@H](C)[C@@H](CN(C)S(=O)(=O)c2cccs2)Oc2c(NC(=O)Nc3ccc4c(c3)OCO4)cccc2C1=O | 0.3
60 | C[C@H](CO)N1C[C@H](C)[C@@H](CN(C)C(=O)Nc2cccc3ccccc23)OCCCC[C@H](C)Oc2ccc(NC(=O)C3CCCCC3)cc2C1=O | 0.3

# Later entries:
item | SMILES | A1 apoptosis 2
61 | C=CCNC(=O)[C@H]1[C@@H]2C(=O)O[C@@H](c3ccccc3)[C@@H](c3ccccc3)N2[C@@H](c2ccc(OCCO)cc2)[C@]12C(=O)N(C(=O)OCCOC)c1ccc(C#CCC(C(=O)OC)C(=O)OC)cc12 | 1.5
62 | COc1ccc(NC(=O)Nc2ccc3c(c2)C(=O)N([C@H](C)CO)C[C@H](C)[C@H](CN(C)S(=O)(=O)c2c(C)noc2C)OCCCC[C@@H](C)O3)cc1 | -0.7
63 | CC(C)(C)OC(=O)NC1(/C=N/NC(=O)CCCCC(=O)NO)CCCC1 | 0.8
64 | C[C@@H]1CCCCO[C@H](CN(C)C(=O)Nc2cccc3ccccc23)[C@H](C)CN([C@@H](C)CO)C(=O)c2cc(NC(=O)NC3CCCCC3)ccc2O1 | -0.4
65 | CC(=O)n1cc([C@@H]2C=C(C(=O)Nc3ccccc3)O[C@H](OCCCCO)C2)c2ccccc21 | -1.2
66 | C[C@H](CO)N1C[C@H](C)[C@@H](CN(C)S(=O)(=O)c2ccc(Cl)cc2)Oc2ccc(NC(=O)Nc3ccc4c(c3)OCO4)cc2C1=O | 0.2
67 | C[C@@H]1CN([C@H](C)CO)C(=O)Cc2cc(NS(C)(=O)=O)ccc2O[C@@H]1CN(C)Cc1ccc(-c2ccccc2)cc1 | 1.2
68 | C=CCN1C(=O)[C@@]2(O[C@@H](CCn3cc([C@H](O)c4ccccc4)nn3)[C@H]([Si](C)(C)c3ccc(OC)cc3)[C@H]2C)c2cc(N3CCOC3=O)ccc21 | 1.2
69 | COc1ccc(S(=O)(=O)Nc2ccc3c(c2)CC(=O)N([C@@H](C)CO)C[C@@H](C)[C@H](CN(C)Cc2ccncc2)O3)cc1 | -0.2
70 | CC(C)NC(=O)Nc1ccc2c(c1)C(=O)N([C@@H](C)CO)C[C@H](C)[C@H](CN(C)C(=O)Nc1cccc3ccccc13)O2 | -1.7
71 | COc1ccccc1CN(C)C[C@@H]1OCc2cnnn2CCCC(=O)N([C@@H](C)CO)C[C@H]1C | 0.9
72 | Cc1noc(C)c1NC(=O)Nc1ccc2c(c1)C(=O)N([C@@H](C)CO)C[C@@H](C)[C@@H](CN(C)Cc1ccncc1)OCCCC[C@H](C)O2 | -1.4
73 | C[C@@H]1CN([C@H](C)CO)C(=O)Cc2cc(NC(=O)Cc3cn(C)c4ccccc34)ccc2O[C@@H]1CN(C)CC1CCCCC1 | -0.3

# Screens (PubChem)
